A1 apoptosis 2 = compounds inhibiting A1, read as caspase activation; MEF A1-2A-BIM cells, caspase-Glo luminescence, 3 h; percent of clofoctol response, DMSO zero; caspase activation, % (concentration not given with the values); 24,000 tested, under 10 active; in the data active = caspase activation above about 5.9%;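 note: wells of about 30 µL received 50 nL stock; the first replicate is given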
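Evaluation: Caspase-3/7 activity from luminescence increase | Assay system: A1-2A-BIM mouse embryonic fibroblasts | Quantity: 2500 MEF cells/well | Medium: RPMI-1640 plus 10% FBS | Detection: Caspase-Glo 3/7 luminescence, 1 h at room temperature | Dosing: 50 nL compound per well, pinned | Timing: Cells settled overnight, compound exposure 3 h at 37 °C, 5% CO2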
An asterisk follows results filed as active. Some of the compounds tested; count on the stated rates, not on these rows.

SMILES	A1 apoptosis 2
C[C@H](CO)N1C[C@H](C)[C@H](CN(C)C(=O)NC2CCCCC2)Oc2c(NC(=O)Nc3ccc(F)cc3)cccc2C1=O	-0.3
C[C@@H]1CCCCO[C@@H](CN(C)C(=O)NC2CCCCC2)[C@H](C)CN([C@@H](C)CO)C(=O)c2cc(NS(=O)(=O)c3ccc(Cl)cc3)ccc2O1	-0.3
C[C@H](CO)N1C[C@H](C)[C@@H](CN(C)Cc2ccncc2)Oc2ccc(NC(=O)Nc3ccc(F)cc3)cc2CC1=O	-1.0
COc1ccc(CN(C)C[C@H]2Oc3c(NC(=O)c4nc5ccccc5s4)cccc3C(=O)N([C@H](C)CO)C[C@@H]2C)cc1	-0.8
C[C@@H]1CN([C@@H](C)CO)C(=O)Cc2cc(NC(=O)NC3CCCCC3)ccc2O[C@@H]1CN(C)Cc1ccncc1	-0.1
COc1ccc(S(=O)(=O)N(C)C[C@@H]2Oc3ccc(NC(=O)Cc4cn(C)c5ccccc45)cc3C(=O)N([C@@H](C)CO)C[C@@H]2C)cc1	0.1
C[C@H](CO)N1C[C@H](C)[C@H](CN(C)CC2CCCCC2)Oc2ccc(NS(C)(=O)=O)cc2C1=O	-0.6
C[C@H](CO)N1C[C@H](C)[C@H](CN(C)C(=O)Nc2cccc3ccccc23)Oc2c(NS(=O)(=O)c3ccc(Cl)cc3)cccc2C1=O	-0.6
COC(=O)CCCCCCC(=O)N/N=C/c1cc2c(cc1Br)OCO2	-0.5
C[C@H]1CCCCO[C@@H](CN(C)C)[C@@H](C)CN([C@@H](C)CO)C(=O)c2cc(NS(C)(=O)=O)ccc2O1	-0.2
C[C@@H]1CCCCO[C@@H](CN(C)C(=O)c2ccncc2)[C@H](C)CN([C@H](C)CO)C(=O)c2cc(NC(=O)Cc3ccccc3)ccc2O1	1.3
C[C@H](CO)N1C[C@H](C)[C@H](CN(C)S(C)(=O)=O)Oc2ccc(NC(=O)c3ccncc3)cc2CC1=O	-0.8
CC(C)NC(=O)Nc1ccc2c(c1)C(=O)N([C@@H](C)CO)C[C@H](C)[C@@H](CN(C)Cc1ccc3c(c1)OCO3)O2	-1.2
C[C@@H]1CN([C@H](C)CO)C(=O)c2cc(NC(=O)C3CC3)ccc2O[C@H]1CN(C)Cc1ccc(C(=O)Nc2ccccc2N)cc1	0.6
C[C@H]1CN([C@@H](C)CO)C(=O)c2cccc(NC(=O)c3ccncc3)c2O[C@H]1CN(C)Cc1ccc(C(F)(F)F)cc1	0.1
Cc1noc(C)c1NC(=O)Nc1cccc2c1O[C@H](CN(C)S(=O)(=O)c1cccs1)[C@@H](C)CN([C@H](C)CO)C2=O	1.3
C[C@@H]1CN([C@@H](C)CO)C(=O)c2cc(NC(=O)NC3CCCCC3)ccc2O[C@@H]1CN(C)CC1CCCCC1	-1.4
C[C@@H]1CCCCO[C@@H](CN(C)Cc2ccc(C(=O)O)cc2)[C@H](C)CN([C@H](C)CO)C(=O)c2cc(NC(=O)Nc3cccc4ccccc34)ccc2O1	-0.9
C[C@@H]1CCCCO[C@H](CN(C)C(=O)C2CCCCC2)[C@H](C)CN([C@H](C)CO)C(=O)c2cc(NC(=O)c3ccccc3)ccc2O1	1.0
C[C@@H]1CCCCO[C@H](CN(C)C(=O)Nc2ccc(C(F)(F)F)cc2)[C@H](C)CN([C@H](C)CO)C(=O)c2cc(NC(=O)C3CCCCC3)ccc2O1	-1.0
CC(C)NC(=O)Nc1ccc2c(c1)CC(=O)N([C@H](C)CO)C[C@@H](C)[C@H](CN(C)Cc1ccccc1)O2	0.0
C[C@H]1CCCCO[C@H](CN(C)Cc2ccncc2)[C@@H](C)CN([C@@H](C)CO)C(=O)c2cc(NS(=O)(=O)c3cn(C)cn3)ccc2O1	0.7
C[C@@H]1CCCCO[C@H](CN(C)C(=O)Nc2ccc(C(F)(F)F)cc2)[C@@H](C)CN([C@H](C)CO)C(=O)c2cc(NS(=O)(=O)c3ccccc3)ccc2O1	-0.7
C[C@@H]1CCCCO[C@H](CN(C)C(=O)Nc2ccccc2)[C@H](C)CN([C@@H](C)CO)C(=O)c2cc(N(C)C)ccc2O1	0.1
C[C@H](CO)N1C[C@H](C)[C@H](CN(C)Cc2ccccc2)Oc2c(NS(=O)(=O)c3cccs3)cccc2C1=O	1.4
Remaining list, next part
SMILES	A1 apoptosis 2
C[C@H]1CN([C@@H](C)CO)C(=O)c2cc(NC(=O)CCC(F)(F)F)ccc2O[C@H]1CN(C)Cc1ccc(Oc2ccccc2)cc1	-0.8
C[C@H](CO)N1C[C@H](C)[C@H](CN(C)CC2CCCCC2)Oc2ccc(NC(=O)NC3CCCCC3)cc2CC1=O	0.8
COC(=O)CCCCCCC(=O)Nc1ccc(NC(=O)CCCC[P+](c2ccccc2)(c2ccccc2)c2ccccc2)cc1	0.0
C[C@H]1CN([C@@H](C)CO)C(=O)CCCn2cc(nn2)CO[C@H]1CN(C)C(=O)Nc1ccc2c(c1)OCO2	0.9
Cc1noc(C)c1S(=O)(=O)N(C)C[C@H]1Oc2ccc(NC(=O)Nc3ccccc3)cc2CC(=O)N([C@H](C)CO)C[C@@H]1C	0.7
C[C@@H]1CCCCO[C@@H](CN(C)C(=O)Nc2ccccc2)[C@@H](C)CN([C@H](C)CO)C(=O)c2cc(NC(=O)Cc3ccccc3)ccc2O1	0.3
C[C@H]1CCCCO[C@H](CN(C)S(C)(=O)=O)[C@@H](C)CN([C@@H](C)CO)C(=O)c2cc(NC(=O)C3CCCCC3)ccc2O1	-0.1
O=C(C1=C[C@H](c2coc3ccccc3c2=O)C[C@H](OCc2ccc(CO)cc2)O1)N1CCOCC1	-0.3
C[C@@H]1CN([C@@H](C)CO)C(=O)c2cc(NC(=O)Cc3cn(C)c4ccccc34)ccc2O[C@@H]1CN(C)S(=O)(=O)c1ccc(Cl)cc1	-0.5
O=C(CCCCCCC(=O)N/N=C/c1ccc(O)cc1)NO	-1.6
C[C@@H]1CN([C@@H](C)CO)C(=O)c2cc(NS(=O)(=O)c3ccc(Cl)cc3)ccc2O[C@@H]1CN(C)S(=O)(=O)c1cccs1	1.1
Cc1noc(C)c1S(=O)(=O)Nc1ccc2c(c1)CC(=O)N([C@@H](C)CO)C[C@H](C)[C@@H](CN(C)S(=O)(=O)c1ccccc1)O2	-0.3
C[C@@H]1CN([C@H](C)CO)C(=O)c2cc(NC(=O)C3CC3)ccc2O[C@H]1CN(C)S(=O)(=O)c1ccc(F)cc1	1.4
C[C@H]1CN([C@@H](C)CO)C(=O)c2cccc(NC(=O)c3ccncc3)c2O[C@H]1CN(C)C(=O)Nc1ccccc1	0.4
C[C@H](CO)N1C[C@H](C)[C@@H](CN(C)S(=O)(=O)c2ccccc2)Oc2ccc(NC(=O)C3CC3)cc2C1=O	-1.0
CC(C)NC(=O)N(C)C[C@H]1OCCCC[C@H](C)Oc2ccc(NS(=O)(=O)c3cccs3)cc2C(=O)N([C@H](C)CO)C[C@@H]1C	1.0
CNC[C@@H]1Oc2ccc(NC(=O)NC3CCCCC3)cc2C(=O)N([C@@H](C)CO)C[C@@H]1C	0.9
CC1(C)[C@H]2CC=C(/C=N\NC(=O)CCCCCCC(=O)O)[C@@H]1C2	1.3
Cc1ccc(S(=O)(=O)Nc2cccc3c2O[C@@H](CN(C)Cc2ccc(C(F)(F)F)cc2)[C@H](C)CN([C@@H](C)CO)C3=O)cc1	-1.1
C[C@H](CO)N1C[C@H](C)[C@@H](CN(C)C(=O)Nc2ccccc2)Oc2ccc(NS(=O)(=O)c3ccccc3)cc2CC1=O	0.3
CNC[C@@H]1Oc2ccc(N)cc2C(=O)N([C@H](C)CO)C[C@H]1C	-0.2
CNC[C@@H]1Oc2ccc(NS(=O)(=O)c3cn(C)cn3)cc2CC(=O)N([C@H](C)CO)C[C@@H]1C	0.5
COc1ccc(S(=O)(=O)Nc2ccc3c(c2)C(=O)N([C@H](C)CO)C[C@H](C)[C@@H](CN(C)S(C)(=O)=O)OCCCC[C@@H](C)O3)cc1	0.0
C[C@@H]1CN([C@H](C)CO)C(=O)c2cc(NS(=O)(=O)c3cccs3)ccc2O[C@@H]1CN(C)C(=O)Nc1cccc2ccccc12	0.0
C[C@@H]1CCCCO[C@@H](CN(C)Cc2ccc(Cl)c(Cl)c2)[C@@H](C)CN([C@H](C)CO)C(=O)c2cc(NC(=O)Cc3ccccc3)ccc2O1	0.0
The listing continues.
SMILES	A1 apoptosis 2
COC(=O)CCCCCCC(=O)N/N=C/C1=CCCCC1	-0.1
CNC[C@@H]1Oc2ccc(NC(=O)Nc3ccc4c(c3)OCO4)cc2C(=O)N([C@H](C)CO)C[C@H]1C	-1.1
C[C@H](CO)N1C[C@H](C)[C@@H](CN(C)S(=O)(=O)c2cccs2)Oc2ccc(N(C)C)cc2CC1=O	0.3
Cc1noc(C)c1S(=O)(=O)Nc1ccc2c(c1)C(=O)N([C@H](C)CO)C[C@H](C)[C@@H](CN(C)S(=O)(=O)c1ccccc1)O2	0.6
COc1ccc(CN(C)C[C@@H]2OCCCC[C@H](C)Oc3ccc(NC(=O)Nc4c(C)noc4C)cc3C(=O)N([C@H](C)CO)C[C@H]2C)cc1	-0.8
C[C@@H]1CN([C@H](C)CO)C(=O)c2cc(NS(=O)(=O)c3ccc(Cl)cc3)ccc2O[C@@H](C)CCCCO[C@@H]1CN(C)Cc1ccc(C(F)(F)F)cc1	-1.0
C[C@H](CO)N1C[C@H](C)[C@H](CN(C)C(=O)c2ccccc2)OCCCC[C@H](C)Oc2ccc(NC(=O)Nc3cccc4ccccc34)cc2C1=O	1.9
C[C@@H]1CN([C@H](C)CO)C(=O)Cc2cc(NS(=O)(=O)c3cn(C)cn3)ccc2O[C@@H]1CN(C)Cc1ccc(C(=O)Nc2ccccc2N)cc1	-0.5
Cc1noc(C)c1NC(=O)N(C)C[C@H]1Oc2ccc(NC(=O)Nc3ccc(F)cc3)cc2C(=O)N([C@@H](C)CO)C[C@H]1C	0.3
Cc1noc(C)c1S(=O)(=O)Nc1ccc2c(c1)C(=O)N([C@H](C)CO)C[C@H](C)[C@@H](CN(C)S(=O)(=O)c1ccc(Cl)cc1)OCCCC[C@H](C)O2	-1.1
C[C@H]1CN([C@@H](C)CO)C(=O)c2cccc(NC(=O)NC3CCCCC3)c2O[C@H]1CN(C)C(=O)Nc1cccc2ccccc12	0.0
Cc1ccc(S(=O)(=O)N(C)C[C@H]2OCCCC[C@@H](C)Oc3ccc(NC(=O)CCCCCC(=O)Nc4ccccc4N)cc3C(=O)N([C@H](C)CO)C[C@@H]2C)cc1	1.1
C[C@@H]1CCCCO[C@H](CN(C)C(=O)Cc2ccccc2)[C@@H](C)CN([C@H](C)CO)C(=O)c2cc(NC(=O)Nc3ccc4c(c3)OCO4)ccc2O1	1.2
Cc1ccc(S(=O)(=O)N(C)C[C@H]2Oc3ccc(NC(=O)C4CCCCC4)cc3CC(=O)N([C@@H](C)CO)C[C@H]2C)cc1	-0.6
C[C@@H]1CN([C@H](C)CO)C(=O)c2cc(NS(=O)(=O)c3cccs3)ccc2O[C@@H]1CN(C)Cc1ccc2c(c1)OCO2	0.6
COc1cccc(S(=O)(=O)N(C)C[C@@H]2Oc3ncc(C#Cc4ccc(F)cc4)cc3C(=O)N([C@H](C)CO)C[C@@H]2C)c1	-0.5
C[C@H]1CCCCO[C@H](CN(C)Cc2ccc3c(c2)OCO3)[C@@H](C)CN([C@@H](C)CO)C(=O)c2cc(NC(=O)Nc3cccc4ccccc34)ccc2O1	-0.2
C[C@H]1CN([C@@H](C)CO)C(=O)c2cccc(NC(=O)Nc3ccc4c(c3)OCO4)c2O[C@@H]1CN(C)C(=O)NC1CCCCC1	-1.4
C[C@@H]1CN([C@H](C)CO)C(=O)Cc2cc(NS(C)(=O)=O)ccc2O[C@@H]1CN(C)C	-1.4
CC(C)NC(=O)Nc1ccc2c(c1)C(=O)N([C@@H](C)CO)C[C@H](C)[C@H](CN(C)C)OCCCC[C@@H](C)O2	-1.4
CC(C)NC(=O)Nc1ccc2c(c1)C(=O)N([C@@H](C)CO)C[C@@H](C)[C@H](CN(C)S(=O)(=O)c1ccc(F)cc1)O2	1.1
C[C@H](CO)N1C[C@H](C)[C@@H](CN(C)C(=O)NC2CCCCC2)Oc2ccc(NS(=O)(=O)c3ccc(Cl)cc3)cc2CC1=O	-1.0
C[C@H](CO)N1C[C@H](C)[C@@H](CN(C)S(=O)(=O)c2ccc(F)cc2)Oc2ccc(NC(=O)Nc3ccc4c(c3)OCO4)cc2CC1=O	-1.0

Structures listed so far containing a thiophene ring, fused or not, in the order listed:
SMILES	A1 apoptosis 2
Cc1noc(C)c1NC(=O)Nc1cccc2c1O[C@H](CN(C)S(=O)(=O)c1cccs1)[C@@H](C)CN([C@H](C)CO)C2=O	1.3
C[C@H](CO)N1C[C@H](C)[C@H](CN(C)Cc2ccccc2)Oc2c(NS(=O)(=O)c3cccs3)cccc2C1=O	1.4
C[C@@H]1CN([C@@H](C)CO)C(=O)c2cc(NS(=O)(=O)c3ccc(Cl)cc3)ccc2O[C@@H]1CN(C)S(=O)(=O)c1cccs1	1.1
CC(C)NC(=O)N(C)C[C@H]1OCCCC[C@H](C)Oc2ccc(NS(=O)(=O)c3cccs3)cc2C(=O)N([C@H](C)CO)C[C@@H]1C	1.0
C[C@@H]1CN([C@H](C)CO)C(=O)c2cc(NS(=O)(=O)c3cccs3)ccc2O[C@@H]1CN(C)C(=O)Nc1cccc2ccccc12	0.0
C[C@H](CO)N1C[C@H](C)[C@@H](CN(C)S(=O)(=O)c2cccs2)Oc2ccc(N(C)C)cc2CC1=O	0.3
C[C@@H]1CN([C@H](C)CO)C(=O)c2cc(NS(=O)(=O)c3cccs3)ccc2O[C@@H]1CN(C)Cc1ccc2c(c1)OCO2	0.6
